# Screening data (PubChem)
# GALR2 ag: agonists of human galanin receptor 2 (GALR2) | O43603 | GALR2-expressing cells, agonist activation read-out | activation, %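 (tested at 5 µM)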 | hit rate 0.48% among 140,000;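 active = above mean plus 3 SD of all compounds, about 5% in these data, not always enough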;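 also: 0% = vehicle buffer wells and 100% = reference agonist at full effect; tested in CHO reporter cells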
# Insulin prom inh: TRM-6 insulin promoter activity inhibition | TRM-6 cells (human fetal islet line), insulin promoter-eGFP reporter, imaging; reporter expression induced with tamoxifen | inhibition, % at 2 µM | hit rate 0.9% among 130,000 | AID 1273;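 active = inhibition above the mean plus 3 SD, with well images judged a real hit on visual review, cut at about 60% in these data, passing the limit was not always enough; inconclusive = inhibition over the cutoff but images rejected on review; inactive = inhibition not above the cutoff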
# HSV replic up: increases HSV replication in cells | HSV replication augmentation in cells, fold increase | maximum fold increase | hit rate 0.005% among 220,000;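 active = peak rise of 1.5-fold or more in the series; inconclusive = self-fluorescent or not available for retest; tested in PC3 cells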;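 also: first round at 10 µM; read as green reporter fluorescence; hits show the peak of a series up to 25 µM; 1 = signal of infected wells without compound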
# RGS16-Gao: modulates binding between human RGS16 and Galphao; O15492+P09471; bead-based flow cytometry RGS16-Galphao binding, fluorescence; actives lie on both sides; binding response (% of control), % at 10 µM; hit rate 0.38% among 220,000; AID 1441;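 active = below 25% or above 175%, edge rows of some plates excepted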;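 also: Galphao activated by GDP with aluminum fluoride before binding; 100% = wells without compound and 0% = beads without RGS; some results beyond the cut were filed as inactive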
# PKD1 inh: inhibitors of human PKD1 kinase | Q15139 | PKD1 kinase fluorescence polarization assay | inhibition, %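 (about 10 µM by stock and volumes)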 | hit rate 0.056% among 200,000 | AID 797;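 active = inhibition of 50% or more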;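 also: controls were vehicle for no effect and a reference inhibitor for full effect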
# Target sequence (Q15139 whole entry, looked up): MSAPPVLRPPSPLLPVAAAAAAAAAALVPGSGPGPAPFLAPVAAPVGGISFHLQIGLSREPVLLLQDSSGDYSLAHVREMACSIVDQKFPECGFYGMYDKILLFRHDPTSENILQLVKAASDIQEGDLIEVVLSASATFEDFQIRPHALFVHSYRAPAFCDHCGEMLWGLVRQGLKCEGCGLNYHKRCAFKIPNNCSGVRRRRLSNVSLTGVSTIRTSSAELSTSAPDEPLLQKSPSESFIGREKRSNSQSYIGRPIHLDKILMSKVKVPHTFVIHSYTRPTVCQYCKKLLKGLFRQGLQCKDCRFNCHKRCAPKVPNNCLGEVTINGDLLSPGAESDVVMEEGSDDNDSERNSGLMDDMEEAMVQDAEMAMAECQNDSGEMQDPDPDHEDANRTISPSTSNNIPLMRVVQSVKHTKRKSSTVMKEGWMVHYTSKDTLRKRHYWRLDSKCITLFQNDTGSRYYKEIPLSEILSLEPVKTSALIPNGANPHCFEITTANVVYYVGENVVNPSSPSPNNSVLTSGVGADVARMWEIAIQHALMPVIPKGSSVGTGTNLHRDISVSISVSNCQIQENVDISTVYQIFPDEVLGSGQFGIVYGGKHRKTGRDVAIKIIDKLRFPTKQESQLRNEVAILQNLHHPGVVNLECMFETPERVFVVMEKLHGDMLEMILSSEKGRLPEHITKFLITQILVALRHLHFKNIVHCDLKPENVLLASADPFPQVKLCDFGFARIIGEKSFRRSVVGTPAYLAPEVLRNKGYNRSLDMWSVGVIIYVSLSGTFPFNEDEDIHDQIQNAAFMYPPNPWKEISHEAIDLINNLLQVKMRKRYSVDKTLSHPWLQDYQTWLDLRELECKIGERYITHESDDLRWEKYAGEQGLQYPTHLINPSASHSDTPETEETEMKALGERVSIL
# Insulin prom inh cell count: recorded beside Insulin prom inh, whose call it bears; normalized cell count, %; measured here: cell count, toxicity; reference of the scale not given here;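 cells exposed to compound for 48 h; stained nuclei by imaging scaled within each plate; lower means fewer cells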
# HSV replic up primary fold: recorded beside HSV replic up, whose call it bears; fold increase; compound at 10 µM; measured here: primary screen fold increase 10 uM; tested in PC3 cells;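 GFP signal in the first replicate; 1 = infected wells without compound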
# Numbers without * were called inactive; i = inactive; ? = inconclusive; · = not tested or not shown. An unsorted share of the library; any-hit rate near 1.1%.
SMILES,GALR2 ag,Insulin prom inh,Insulin prom inh cell count,HSV replic up,HSV replic up primary fold,RGS16-Gao,PKD1 inh
CC(=O)N1CCc2cc(NC(=O)c3ccc(C)cc3)ccc21,-0.1,5.6,118.3,i,0.96,99.3,9.1
Cc1nc(CC(=O)O)c(-c2ccccc2)s1,-1.1,12.5,166.7,i,0.88,97.0,4.5
CCCCN1C(=O)N(C)C2NC(=S)NC21 (centres undefined),·,·,·,i,0.95,106.2,·
CCC(Oc1ccccc1)C(=O)NCCOC (centres undefined),-0.5,34.6,66.3,i,1.09,25.5,-8.5
CCOC(=O)C1=C(C)Nc2nc3ccccc3n2C1c1ccccc1 (centres undefined),-1.5,33.3,140.6,i,0.68,102.3,-1.6
Cc1ccc(CNC(=O)C2CC(c3ccc(C(F)(F)F)cc3)=NO2)o1 (centres undefined),·,·,·,i,1.14,91.4,·
Cc1nc(SCC(=O)c2ccccc2)n[nH]1,-1.4,-68.6,110.6,i,1.07,109.9,3.1
Cc1cccc(/C=C2\CS/C(=C\c3cccc(C)c3)C2=O)c1,-0.2,25.0,141.5,i,0.98,94.4,6.6
O=C(N/N=C\c1cn(-c2ccccc2)nc1-c1ccccc1)c1ccc2c(c1)OCO2,-1.7,0.0,102.2,i,0.9,103.6,7.6
Cc1cccc(NCc2ccc(O)c3ncccc23)c1C,·,·,·,i,1.01,98.6,4.6
Cc1n[nH]c(C)c1CCc1nc2c3ccccc3nc(SCC(N)=O)n2n1,-0.6,-5.6,95.1,i,0.87,101.4,-1.7
Cn1c(=O)c2c(nc(N3CCN(c4ccccn4)CC3)n2Cc2ccc(Cl)cc2Cl)n(C)c1=O,-0.9,0.0,129.4,·,·,100.4,-7.6

# Structures above that have an aryl thioether with sulfur outside any ring, in the order listed:
SMILES,GALR2 ag,Insulin prom inh,Insulin prom inh cell count,HSV replic up,HSV replic up primary fold,RGS16-Gao,PKD1 inh
Cc1nc(SCC(=O)c2ccccc2)n[nH]1,-1.4,-68.6,110.6,i,1.07,109.9,3.1
Cc1n[nH]c(C)c1CCc1nc2c3ccccc3nc(SCC(N)=O)n2n1,-0.6,-5.6,95.1,i,0.87,101.4,-1.7

# Next part
SMILES,GALR2 ag,Insulin prom inh,Insulin prom inh cell count,HSV replic up,HSV replic up primary fold,RGS16-Gao,PKD1 inh
S=C(Nc1ccc(Oc2ccccc2)cc1)NC1CCCCC1,-2.2,34.8,90.7,?,·,101.4,-7.7
Cc1nn(-c2ccccc2)c(C)c1NC(=O)c1cccs1,-1.3,-24.3,187.5,i,0.74,-7.9*,-0.6
Cc1cc(Nc2ccc(F)c(F)c2)nc(-c2ccccc2O)n1,·,·,·,i,0.99,100.3,·
CC1=C(C(=O)N2CCOCC2)C(c2ccc(Cl)cc2)NC(=S)N1 (centres undefined),0.6,·,·,i,0.92,101.4,-4.5
COCCCn1c(C)nnc1SCC(=O)NCc1ccco1,-2.5,-358.8,90.3,i,0.86,100.7,-5.4
CCCCC1=CC2=C(c3ccco3)C(=O)C(C)(OC(=O)c3ccc(OC)cc3)C(=O)C2=CN1c1ccccc1 (centres undefined),·,·,·,i,1.13,102.1,·
Cc1ccc(NC(=O)NC2CCCCC2)cc1S(=O)(=O)N1CCOCC1,·,·,·,i,0.72,96.2,-3.2
COc1ccccc1CNC(=O)CSc1nc(-c2ccccc2)cn1N,-2.2,·,·,i,1.16,96.0,5.8
COc1ccccc1-c1noc(-c2cc(OC)c(OC)c(OC)c2)n1,-1.0,51.4,109.7,i,0.9,111.8,-1.9
CC(=O)Nc1ccc(-c2ccc(NC(C)=O)cc2)cc1,·,-61.5,99.2,·,·,109.3,0.3
O=C(/C=C/c1ccc[nH]1)c1ccccc1,·,-27.3,119.6,i,1.18,100.5,-8.2
Cc1ncc([N+](=O)[O-])n1CC(=O)NC1CCCCCC1,·,0.0,124.2,i,0.91,108.0,-5.6
CC(C)C(=O)NC(c1ccc([N+](=O)[O-])cc1)c1c(O)ccc2ccccc12 (centres undefined),-1.7,-76.7,141.1,i,0.95,97.8,6.7
Cc1ccccc1CSCC(=O)Nc1ccccc1-c1ccccc1,0.1,-63.6,63.2,i,1.01,43.2,-1.9
O=C(c1nnsc1S(=O)(=O)c1ccc(Cl)cc1)N1CCOCC1,·,·,·,i,0.6,102.6,3.1
CCOCCCNC(=O)c1ccc2c(=O)n(Cc3ccc4c(c3)OCO4)c(=S)[nH]c2c1,·,·,·,i,0.93,99.6,-3.6
CC1=C(C#N)C(=O)NC(=O)/C1=C\c1ccc(-c2ccc(C)cc2[N+](=O)[O-])o1,·,13.3,94.7,i,0.92,78.5,-0.1
CCn1c(-c2cc(Br)cc(OC)c2O)nc2cc(S(=O)(=O)N(C)C)ccc21,0.3,21.4,92.4,i,0.87,88.9,-4.7
CN1CCN(CC(=O)Nc2nc(-c3c[nH]c4ccccc34)cs2)CC1,·,·,·,i,0.82,104.0,-8.5
CC(=O)c1cccc(NC(=O)NCc2ccco2)c1,-1.1,6.2,100.0,i,1.29,92.9,-1.4
Cc1ccc(N=Nc2c(N)nn3c(N)c(C#N)c(C)nc23)cc1,·,46.7,103.0,i,1.01,105.9,-3.7
COc1cccc(Cn2c(=O)ccc3ccccc32)c1,·,·,·,i,0.9,102.3,4.4
CN(C(=O)c1ccncc1)c1nnc(-c2ccccn2)s1,-0.4,·,·,i,0.98,102.8,-14.6
Nc1nc(NC(=O)CCC(=O)O)nn1-c1ccccc1,·,·,·,i,0.98,97.6,·
CCc1ccccc1NC(=O)CSc1nnc(-c2ccco2)n1N,-1.3,·,·,i,0.83,95.5,2.6
Cc1ccc(-c2nn(C)c(=O)c3ccccc23)cc1S(=O)(=O)NCCN(C)C,·,·,·,i,1.02,105.3,-1.4
CCc1ccc(N2CCN(C(=O)c3ccc(OC)c(OC)c3)CC2)cc1,-0.9,-142.9,20.9,i,1.27,81.8,-3.7
Cc1ccc(S(C)(=O)=O)cc1S(=O)(=O)Nc1ccccc1,-2.0,-19.2,128.4,i,1.07,111.6,-9.3
O=S(=O)(Nc1ncn[nH]1)c1ccc2ccccc2c1,-0.8,-5.0,113.3,i,0.85,112.8,2.4
CCOC(=O)Cn1c(=NC(=O)CSC(C)=O)sc2cc(OC)ccc21,-0.2,-60.7,108.0,i,0.89,97.4,-5.0
Cc1ccc(C(=O)c2oc3ccccc3c2NC(=O)c2cc(-c3ccccc3O)n[nH]2)cc1,2.7,0.0,93.6,i,0.83,104.2,5.5
CN1CCc2c(c3c(n2C)CCN(C)C3c2ccc(F)cc2)C1c1ccc(F)cc1 (centres undefined),-0.7,-69.2,99.4,·,·,101.0,-2.9
O=C(NC(=S)Nc1ccccn1)c1cc(-c2ccccc2)nc2ccccc12,-0.7,50.0,57.0,i,0.92,160.8,-3.1
O=C(CSCc1ccccc1F)NCc1ccc(F)cc1,·,20.0,97.4,i,1.04,101.1,-3.5
CCOC(=O)c1c(NC(=O)CN2CCN(c3ccc(Cl)cc3)CC2)sc(C)c1C,-0.6,·,·,i,0.88,55.2,-10.1
CCOC(=O)N1CCN(C(=O)c2ccc3c(=O)n(-c4ccccc4F)c(=S)[nH]c3c2)CC1,·,·,·,i,0.97,104.6,-3.5
Cc1cc(C)c(NC2=NCC(=O)N2C2CCCCC2)c(C)c1,-1.4,28.9,146.9,i,1.2,110.2,-13.9
CC(C)(C)NS(=O)(=O)c1cccc2nsnc12,-2.3,·,·,i,0.85,·,0.0
O=C1NC(=O)C(Nc2cccc3ccccc23)S1 (centres undefined),-1.3,65.0,67.3,i,1.04,100.6,10.2
CCO[C@H]1OC(C(=O)N2CCN(Cc3ccccc3)CC2)=C[C@@H](c2cn(C(C)=O)c3ccccc23)[C@@H]1CCCO,·,·,·,i,1.04,107.3,-6.5
COc1ccc(N=C(NN)c2ccc3ccccc3n2)cc1,-0.9,63.3,68.5,i,0.81,38.5,-1.4
CC(C)C(=O)NC(c1ccco1)c1ccc2cccnc2c1O (centres undefined),-2.1,-23.1,76.7,?,·,102.0,-20.8
O=C(CN1C(=O)c2ccccc2S1(=O)=O)Nc1ccc(S(=O)(=O)N2CCCC2)cc1,-1.6,-21.7,87.0,i,1.06,94.5,-10.0
CS(=O)(=O)N1CCN(c2ccccc2NC(=O)c2cccc3ccccc23)CC1,-1.2,50.0,86.1,i,1.03,105.2,-10.8
CC1CCCCC1NC(=O)COn1nnc2ccc(Cl)cc21 (centres undefined),0.1,11.4,107.3,i,0.943,103.2,-1.1
NC(=O)COC(=O)Cc1coc2cc3c(cc12)CCC3,·,15.0,123.3,i,0.99,115.5,-5.8
Cc1cccc(C)c1OCC(=O)Nc1cccc(C(=O)O)c1,·,·,·,i,0.84,94.7,2.1
O=C(Nc1nnc(CC(=O)N2CCOCC2)s1)C1COc2ccccc2O1 (centres undefined),-3.0,·,·,i,0.977,90.3,-2.0
O=C(O)CNC(=O)C1COc2ccccc2O1 (centres undefined),-1.5,-95.3,26.8,i,1.14,99.9,-4.0
CC(C)N1CCC2(CC1)Oc1ccc(Br)cc1C1CC(c3cccnc3)=NN12 (centres undefined),·,·,·,i,0.95,100.6,·
Cc1ccccc1/C=N/NC(=O)c1sccc1C,0.0,30.8,109.7,i,1.03,40.4,-4.3
Cc1ccc(C(C(=O)NC2CCCCC2)N(CC2CCCO2)C(=O)CNC(=O)c2ccco2)cc1 (centres undefined),1.1,·,·,i,0.97,115.6,-3.9
O=C(Oc1ccccc1)c1cccc2cccnc12,-1.8,-42.1,105.1,i,0.93,84.9,-5.0
Fc1ccccc1Cn1nnc(-c2ccc3c(c2)OCO3)n1,-3.4,41.7,82.0,i,0.9,99.9,0.1
COc1ccc(Cl)cc1C(=O)Nc1ccc(Br)c(C)n1,·,·,·,i,0.81,93.7,-2.2
CC(=O)N1CCc2cc(S(=O)(=O)NCCC(=O)Nc3ccc4c(c3)OCCO4)ccc21,-2.5,·,·,i,0.91,99.5,-4.8
COC(=O)Nc1sc2c(c1C(=O)NC1CC1)CCCCCC2,-0.2,-50.0,87.4,i,1.32,123.4,-2.7
c1ccc(-n2nnnc2NCCc2c[nH]c3ccccc23)cc1,0.0,·,·,i,0.94,125.9,1.8
Cc1cc(C(=O)CSc2nnc(-c3cccs3)o2)c(C)n1-c1ccccc1,-0.2,-3.1,76.5,i,0.96,87.6,-7.8
O=C(Cn1cnc2c(cnn2-c2ccc(Cl)cc2)c1=O)NCCc1ccccc1,-1.4,·,·,i,0.93,97.7,-4.0

# (next part)
SMILES,GALR2 ag,Insulin prom inh,Insulin prom inh cell count,HSV replic up,HSV replic up primary fold,RGS16-Gao,PKD1 inh
CC(C)=C1C2CCC1C1C(=O)N(c3nc(-c4ccc(F)cc4)c(C)s3)C(=O)C21 (centres undefined),-1.9,·,·,i,0.74,98.0,0.1
CC(C)CN(C)C(=O)CCc1nnc(Cc2ccc(-c3ccccc3)cc2)o1,·,·,·,i,1.14,95.3,3.4
CC(NC(=O)c1cccc(Cn2cc([N+](=O)[O-])cn2)c1)c1ccc(C(C)(C)C)cc1 (centres undefined),-1.5,-13.5,57.2,i,1.09,100.3,-3.0
CCn1c(=S)ccc2ccc(OC)cc21,-0.4,-29.7,113.4,i,1.01,98.1,-4.8
CC(Cc1c[nH]c2ccccc12)NC(N)=O (centres undefined),·,16.7,159.8,i,0.97,103.4,-1.8
Nc1cnn(Cc2ccccc2F)c1,·,·,·,i,0.96,92.8,1.3
Cc1cc(C)cc(N2CC34C=CC(O3)C(C(=O)OCC(=O)NCc3ccco3)C4C2=O)c1 (centres undefined),-2.2,-34.4,98.7,i,1.04,97.1,-8.2
O=C(N/N=C/c1c(F)cccc1Cl)c1ccc(Cn2cc(Br)cn2)o1,40.0*,16.7,83.3,i,0.98,90.0,10.4
O=C(Nn1c(Cc2cccs2)nc2ccccc2c1=O)c1ccc(F)c(F)c1,-2.4,-418.8,84.2,i,1.01,102.4,-7.5
CCOC(=O)Cn1cc(C#N)c(=O)[nH]c1=O,·,·,·,i,1.13,97.9,·
CCCCOc1ccc(C(C)NC(=O)C2CCCN(S(=O)(=O)CCC)C2)cc1 (centres undefined),-2.0,-11.1,142.0,i,0.98,39.6,3.6
COc1ccccc1-c1ccc(C(=O)O)o1,-0.6,18.8,115.8,·,·,98.5,-1.2
C=CCNC(=S)N(C1CCCCC1)C1CCCCC1,·,-57.9,125.7,i,1.2,100.2,2.2

# Some values from the entries so far:
# GALR2 ag result of O=C(N/N=C/c1c(F)cccc1Cl)c1ccc(Cn2cc(Br)cn2)o1 : 40.0*
# RGS16-Gao result of CCn1c(=S)ccc2ccc(OC)cc21 : 98.1
# HSV replic up primary fold result of CCOC(=O)Cn1cc(C#N)c(=O)[nH]c1=O : 1.13
